Measles inh = inhibitors of measles virus growth in infected cells; hit rate 0.1% among 33,000; infected Vero cells, GFP fluorescence, 64 h; hits give low values; z-score (concentration not given with the values);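 active = z-score under -3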;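 note: score is relative to mean and SD of the compound wells of a plate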
* marks the source's active call; other numbers are inactive results. These rows are one share of the data, so the mix of outcomes need not match the whole.

For CCCCOc1ccc(OC(=O)c2cncc(Br)c2)cc1 the results were Measles inh -0.6.
For COCCCNC(=O)c1cc(S(=O)(=O)N2CCCC2)ccc1F the results were Measles inh 0.75.
O=C(Nc1cccc(C(F)(F)F)c1)c1cnn2c(C(F)(F)F)cc(-c3cccs3)nc12 was read as Measles inh 1.12.
O=C(Nc1ccc(C(F)(F)F)cc1)C1c2ccccc2C(=O)N2CCc3ccccc3C12 (stereo unspecified) was read as Measles inh 2.02.
`CCOCCOC(=O)C1=C(C)NC2=C(C(=O)CC(c3ccc(OC)cc3)C2)C1c1cccc2ccccc12` (stereo unspecified) gave Measles inh -1.33.
For COc1ccc(NC(=O)CN2CCN(S(=O)(=O)c3ccc(Cl)cc3)CC2)cc1Cl the results were Measles inh -0.2.
For CC(=O)N1CCc2cc(Br)cc(S(=O)(=O)CCC(=O)N3CCN(c4ccccc4Cl)CC3)c21 the results were Measles inh -0.1.
Screening O=C(O)CCc1ccc(-c2ccc(F)cc2)n1-c1ccccc1C(F)(F)F returned Measles inh -0.63.
Screening CC12CCC(C(=O)N(Cc3ccccc3)Cc3ccccc3)(CC1=O)C2(C)C (stereo unspecified) returned Measles inh -0.61.
`O=C(Nc1ccccc1Br)c1cc(S(=O)(=O)NCc2ccc(F)cc2)ccc1F` gave Measles inh 0.29.
For COc1ccc(NC(=O)c2cc(=O)c3ccccc3o2)cc1 the results were Measles inh -1.5.
`CC(C)N(CCC#N)S(=O)(=O)c1ccc([N+](=O)[O-])cc1` gave Measles inh -0.08.
For Cc1ccc(-n2nc3cc(C)c(NC(=O)c4cccnc4)cc3n2)cc1 the results were Measles inh -1.06.
O=C(Nc1cccc([N+](=O)[O-])c1)c1ccc(Br)c(S(=O)(=O)N2CCC(C(=O)O)CC2)c1 was read as Measles inh -0.03.
Screening O=S1(=O)NC(=NC2CCCCCCCCCCC2)c2ccccc21 returned Measles inh -0.7.
O=C(Nc1ccc2c(c1)C(=O)c1ccccc1C2=O)c1ccc(Cl)cc1 was read as Measles inh 0.72.
For CC=CCSc1nc2c(c(=O)n(C)c(=O)n2C)n1Cc1cccc(C)c1 the results were Measles inh 1.39.
`COc1cc2nc3c4ccccc4n(CCC(C)C)c3nc2cc1OC` gave Measles inh -1.35.
Screening Cc1ccccc1Nc1nc(N2CCOCC2)c2ccccc2n1 returned Measles inh -0.51.
Screening COC(=O)c1c(NC(=O)c2ccc(OCc3ccccc3Cl)c(OC)c2)sc(C)c1C returned Measles inh -0.36.

Among those listed so far, these have a COOH group:
Screening O=C(O)CCc1ccc(-c2ccc(F)cc2)n1-c1ccccc1C(F)(F)F returned Measles inh -0.63.
O=C(Nc1cccc([N+](=O)[O-])c1)c1ccc(Br)c(S(=O)(=O)N2CCC(C(=O)O)CC2)c1 was read as Measles inh -0.03.

The list continues:
Screening Cc1cccc(N(C(=O)c2cnc3n(c2=O)CCS3)C2CCCCC2)c1 returned Measles inh -0.32.
`Cc1ccccc1NC(=O)c1c(NC(=O)Cc2ccccc2)sc2c1CCC(C)C2` (stereo unspecified) gave Measles inh -0.51.
`Cc1c(OC(=O)c2ccccc2)ccc2c3c(c(=O)oc12)CCC3` gave Measles inh -1.63.
Cc1cc(C2c3c(n(C)c(=O)n(C)c3=O)N=C3c4ccccc4C(=O)C32)cc(C)c1O (stereo unspecified) was read as Measles inh 0.24.
`COC(=O)c1c(C)oc2ccc(NS(=O)(=O)c3cc(C)ccc3C)cc12` gave Measles inh -0.14.
`COc1cc(C(=O)NCc2n[nH]c(=S)n2-c2cccc(C(F)(F)F)c2)cc(OC)c1OC` gave Measles inh 2.11.
`COc1ccc(N2C(=O)NC3CC2(C)Oc2ccc(Br)cc23)cc1` (stereo unspecified) gave Measles inh -0.13.
For Cc1c(NC(=O)c2ccc(CN(c3ccccc3)S(C)(=O)=O)cc2)c(=O)n(-c2ccccc2)n1C the results were Measles inh -1.25.
For CCCCn1ccc(=N)cc1 the results were Measles inh 0.01.
For Cc1ccc(C(=O)Nc2ccccc2C(=O)NC(C)C(=O)O)cc1 (stereo unspecified) the results were Measles inh 1.22.
`COc1cc(Nc2nc(SCC(=O)c3ccc(F)cc3)nc3ccccc23)cc(OC)c1OC` gave Measles inh 0.59.
Screening CCOc1ccccc1NC(=O)c1cc(S(=O)(=O)N(CC)c2ccccc2)ccc1F returned Measles inh 0.61.
For NC(=O)c1ccccc1NC(=O)c1ccccc1CCc1ccccc1 the results were Measles inh 2.29.
For COc1cc(C(=O)Nc2nc3c(s2)CC(C)CC3)cc(OC)c1OC (stereo unspecified) the results were Measles inh -0.52.
Screening O=C(NCc1ccco1)C(=O)NCC1OCCc2ccccc21 (stereo unspecified) returned Measles inh 0.56.
Screening CN(C(=O)c1coc(=O)c2ccccc12)c1ccccc1Cl returned Measles inh -1.3.
For COc1cccc(C2C(C(=O)Nc3ccc(C)cn3)=C(C)NC3=C2C(=O)CCC3)c1 (stereo unspecified) the results were Measles inh 0.21.
For CCC(=O)Nc1nc(-c2ccc(Br)cc2)nc2c1c(=O)oc1ccccc12 the results were Measles inh -0.37.
Cc1ccccc1OCC(=O)Nc1ccc2c(c1)C(=O)c1ccccc1C2=O was read as Measles inh -1.07.
Screening CCN(C=Nc1sc2c(c1C#N)CCCCC2)CC returned Measles inh -0.1.
`Cc1cc(S(=O)(=O)N2CCCCC2)ccc1Br` gave Measles inh -0.67.
O=[N+]([O-])c1ccc(N2CCN(S(=O)(=O)c3ccc4ccccc4c3)CC2)c(C(F)(F)F)c1 was read as Measles inh -0.97.
`CC1CC(C)CN(S(=O)(=O)c2ccc(Oc3ccc([N+](=O)[O-])cc3)cc2)C1` (stereo unspecified) gave Measles inh -0.74.
O=C(c1ccco1)N1CCN(c2nc3ccccc3c(=O)n2-c2ccc(Cl)cc2)CC1 was read as Measles inh 1.93.
`Cn1c(OCc2cccnc2)nc2c1c(=O)n(Cc1ccc(F)cc1)c(=O)n2C` gave Measles inh 0.61.
`Cc1ccc(C(=O)C2=C(O)C(=O)N(Cc3cccnc3)C2c2ccc(N(C)C)cc2)o1` (stereo unspecified) gave Measles inh -0.41.
Screening COc1ccc(Cc2nnc(NC(=O)Nc3ccc(Cl)cc3)s2)cc1OC returned Measles inh -0.79.
CCOC(=O)c1c(NC(=O)COc2ccc(Cl)cc2C)sc2c1CCCC2 was read as Measles inh -0.32.
Cc1nc2cccc(C(=O)Oc3ccccc3)c2o1 was read as Measles inh 0.09.
Screening CCCNS(=O)(=O)c1ccc(F)c(C(=O)Nc2cc(C)ccc2OC)c1 returned Measles inh -1.72.
O=C(NCc1ccc(C(=O)NCC2CCCO2)cc1)c1ccc(Br)cc1 (stereo unspecified) was read as Measles inh 0.32.
O=C(COc1ccccc1Br)Nc1ccc2c(c1)OCO2 was read as Measles inh 0.28.
Cc1ccc(CNC(=O)c2ccc3c(c2)N(Cc2cc(C)ccc2C)C(=O)CS3)cc1 was read as Measles inh 0.49.
For COc1cc(C(=S)N2CCOCC2)cc(OC)c1OC(=O)c1ccc(C)cc1 the results were Measles inh -1.66.
CC(=O)C1=C(O)C(=O)N(Cc2ccccc2)C1c1ccc(Cl)cc1 (stereo unspecified) was read as Measles inh -0.32.
For CCCCOc1ccc(-c2nc(NC(=O)CC)c3c(=O)oc4ccccc4c3n2)cc1 the results were Measles inh -0.35.
Cc1sc2ncn(CC(=O)NCC(=O)Nc3ccc4c(c3)OCO4)c(=O)c2c1C was read as Measles inh -1.86.
For CCOC(=O)C(C)Sc1nc2c(c(=O)[nH]c(=O)n2C)n1CCc1ccccc1 (stereo unspecified) the results were Measles inh -1.66.
COc1ccccc1C1(CCN=Cc2ccccc2)CCOC(C)(C)C1 (stereo unspecified) was read as Measles inh 0.73.
C=CCNC(=O)C(=O)NCC1CCNCC1 was read as Measles inh 0.02.

Fetched by structure from above (4):
C=CCNC(=O)C(=O)NCC1CCNCC1 was read as Measles inh 0.02.
CCOC(=O)c1c(NC(=O)COc2ccc(Cl)cc2C)sc2c1CCCC2 was read as Measles inh -0.32.
Cc1ccc(CNC(=O)c2ccc3c(c2)N(Cc2cc(C)ccc2C)C(=O)CS3)cc1 was read as Measles inh 0.49.
For COc1cc(C(=S)N2CCOCC2)cc(OC)c1OC(=O)c1ccc(C)cc1 the results were Measles inh -1.66.

In the list so far, 2 contain an NH in an aromatic ring.
`COc1cc(C(=O)NCc2n[nH]c(=S)n2-c2cccc(C(F)(F)F)c2)cc(OC)c1OC` gave Measles inh 2.11.
For CCOC(=O)C(C)Sc1nc2c(c(=O)[nH]c(=O)n2C)n1CCc1ccccc1 (stereo unspecified) the results were Measles inh -1.66.

Going on with the list.
`COc1cccc(CN2CCC(N3CCN(c4ccccc4)CC3)CC2)c1OC` gave Measles inh -0.55.
Screening Cc1ccc(S(=O)(=O)N2CCCCCC2)cc1C(=O)Nc1ccc(Br)cc1 returned Measles inh -0.48.
Screening COc1cccc(NC(=O)CCN2CC(C)CC(C)C2)c1 (stereo unspecified) returned Measles inh 2.24.
Screening CCOC(=O)C(C)(C)N(Cc1ccc(Cl)cc1)S(=O)(=O)c1ccc(Cl)c([N+](=O)[O-])c1 returned Measles inh -1.57.
Cn1c(=O)cc(SCC(=O)NCc2ccc3c(c2)OCO3)c2ccc(Cl)cc21 was read as Measles inh 1.1.
Screening CC1=C(C(=O)OC(C)C)C(c2cccc([N+](=O)[O-])c2)C2=C(CC(c3cccs3)CC2=O)N1 (stereo unspecified) returned Measles inh -0.24.
CC1CC(C)CN(S(=O)(=O)c2ccc(C(=O)N=c3sc4cc(Cl)ccc4n3C)cc2)C1 (stereo unspecified) was read as Measles inh 1.35.
For CC(C)OC(=O)Cn1cnc([N+](=O)[O-])n1 the results were Measles inh 0.22.
Screening COCCNC(=O)c1ccc2c(=O)n(CCC3=CCCCC3)c(=S)[nH]c2c1 returned Measles inh 0.17.
For Cc1ccc(NC(=O)C2CCCN(S(=O)(=O)c3cccc4nsnc34)C2)cc1 (stereo unspecified) the results were Measles inh 0.48.
CCOC(=O)C1=C(C)NC2=C(C(=O)CC(c3ccc(Cl)cc3)C2)C1c1ccc(Cl)cc1 (stereo unspecified) was read as Measles inh -1.1.
O=C(NCc1ccc2c(c1)OCO2)c1cccnc1SCc1cccc(F)c1 was read as Measles inh -0.78.
For Cc1ccc2c(c1)C(C)CC(C)(C)N2C(=O)Nc1cccc(Cl)c1 (stereo unspecified) the results were Measles inh -0.08.
For CC(=O)c1cc2c(cc1NC(=O)c1cc3nc(-c4ccc5c(c4)OCO5)cc(C(F)(F)F)n3n1)OCO2 the results were Measles inh -0.53.
Screening COc1cc2c(cc1OC)C(C(=O)O)C(c1cccc([N+](=O)[O-])c1)N(C)C2=O (stereo unspecified) returned Measles inh -0.28.
O=C(Nc1ccc(C(F)(F)F)cc1)c1ccc(NCCc2ccccc2)c([N+](=O)[O-])c1 was read as Measles inh -0.05.
COc1cccc2cc(-c3cn(-c4cccc(SC)c4)c(=S)[nH]3)c(=O)oc12 was read as Measles inh 0.03.
Screening CC(Oc1ccccc1F)C(=O)NC1CCS(=O)(=O)C1 (stereo unspecified) returned Measles inh -0.34.
COc1ccc(C(=O)NCCNC(=O)C2CCCNC2=O)cc1 (stereo unspecified) was read as Measles inh -0.55.
Cn1c(=N)n(CC(=O)c2ccco2)c2ccccc21 was read as Measles inh 0.07.

Structural class, the entries above with a furan ring, fused or not.
`COC(=O)c1c(C)oc2ccc(NS(=O)(=O)c3cc(C)ccc3C)cc12` gave Measles inh -0.14.
Screening O=C(NCc1ccco1)C(=O)NCC1OCCc2ccccc21 (stereo unspecified) returned Measles inh 0.56.
O=C(c1ccco1)N1CCN(c2nc3ccccc3c(=O)n2-c2ccc(Cl)cc2)CC1 was read as Measles inh 1.93.
`Cc1ccc(C(=O)C2=C(O)C(=O)N(Cc3cccnc3)C2c2ccc(N(C)C)cc2)o1` (stereo unspecified) gave Measles inh -0.41.
Cn1c(=N)n(CC(=O)c2ccco2)c2ccccc21 was read as Measles inh 0.07.

Next compounds:
`O=[N+]([O-])c1ccc2nc(-c3ccccc3[N+](=O)[O-])[nH]c2c1` gave Measles inh -0.33.
For COc1ccccc1NC(=O)c1c(Cl)nc(Cl)c(Cl)c1Cl the results were Measles inh 1.33.
For CCOC(=O)c1ccc(N=c2oc3ccccc3cc2C(=O)Nc2cccc(C(F)(F)F)c2)cc1 the results were Measles inh -0.12.
`CC1C=CCC2C(=O)N(c3ccc(F)cc3)C(=O)C12` (stereo unspecified) gave Measles inh 0.22.
`COc1ccc(-c2nc3cc(N=Cc4ccc(Cl)c([N+](=O)[O-])c4)ccc3o2)cc1` gave Measles inh -1.62.
`Nc1c(C(=O)Nc2ccc(F)cc2)sc(=S)n1Cc1ccco1` gave Measles inh -0.4.
O=C(CCS(=O)(=O)c1nc(-c2ccc3c(c2)OCO3)cc(C(F)(F)F)n1)Nc1ccc(-n2cccc2)c(Cl)c1 was read as Measles inh -0.24.
`CCOc1ccc(C2NC(C(=O)O)CS2)cc1OCC` (stereo unspecified) gave Measles inh -0.13.
Cc1ccc(CSc2nc3c(c(=O)[nH]c(=O)n3C)n2Cc2ccccc2)cc1 was read as Measles inh -0.08.
Screening O=C(NCC1OCCc2ccccc21)C1COc2ccccc2O1 (stereo unspecified) returned Measles inh 1.54.
For CC(=O)Nc1ccc(NC(=O)CSc2nc3ccccc3n2S(=O)(=O)c2ccccc2)cc1 the results were Measles inh 0.3.
COc1ccc(NC(=O)CCn2nc(-c3ccc(C)cc3)c3ccccc3c2=O)cc1C(N)=O was read as Measles inh -0.66.
Cc1c(OCc2ccc(C(=O)O)o2)ccc2c(-c3ccccc3)cc(=O)oc12 was read as Measles inh 0.51.
`CC1=CC(C)(C)N(C(=O)C(C)N2C(=O)c3ccccc3C2=O)c2cc(C)c(C)cc21` (stereo unspecified) gave Measles inh -0.1.
`Cc1c([N+](=O)[O-])ccc2nsnc12` gave Measles inh -0.96.
Screening CC1CC(C)CN(C(=O)c2cn(C3CCCCC3)c(=O)c3c2c2ccccc2n3C)C1 (stereo unspecified) returned Measles inh -1.85.
Screening CC(C)(C)C(=O)Cn1c(=O)n(-c2ccccc2)c(=O)c2sccc21 returned Measles inh -0.72.
CCOC(=O)c1sc2ncnc(Nc3ccccc3F)c2c1C was read as Measles inh -0.94.
For CCOc1cccc(-c2cc(C(=O)Nc3sc(C)cc3C(=O)OC)c3ccccc3n2)c1 the results were Measles inh -0.48.
For COc1ccc(-n2ncc3c(N4CCC(C)CC4)ncnc32)cc1 the results were Measles inh -0.02.

High-throughput results deposited in PubChem by Emory University Molecular Libraries Screening Center.
